# HIV TAR-Tat = TAR RNA-Tat peptide displacers, HIV-1, primary screen, biochemical, FRET, FAM/TAMRA-labeled Tat | HIV-1 TAR RNA, Tat peptide displacement FRET; active compounds read high | z-score (test concentration not listed) | actives 0.6% (n = 100,000) | AID 1259389, 2018;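 further: score is relative to mean and SD of negative controls; some compounds called inactive have numbers as strong as hits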
# CDC25B CDK2 inh = primary biochemical HTRF screen for blockers of M-phase inducer phosphatase 2 binding to CDK2/cyclin A; z-score (test concentration not listed); actives 0.72% (n = 94,000); HTRF CDC25B-CDK2/CyclinA binding, anti-His/anti-Flag; active compounds read high;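 further: score is relative to mean and SD of negative controls; strong numbers were not always called active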
# The depositor's hits bear a star; nt = no result given.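 How the source made its calls: active means z-score from 3 up in half or more of its runs; inactive means the rest.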
SMILES,HIV TAR-Tat,CDC25B CDK2 inh
Cc1ccc(CN(C(=O)c2nc(S(C)(=O)=O)ncc2Cl)C2CCS(=O)(=O)C2)cc1 (stereo not drawn),2.5,-0.02
NS(=O)(=O)c1ccc(Nc2c(-c3ccccc3)c(=O)c2=O)cc1,3,nt
CCOc1ccc(OCCSc2nc3ccccc3[nH]2)cc1,1.7,-0.04
COc1ccc(OC)c(S(=O)(=O)n2nc(-c3ccccc3)cc2N)c1,-0.81,-0.82
Cc1cccc(C)c1NS(=O)(=O)c1ccc(N2CCCCS2(=O)=O)cc1,0.21,nt
COc1ccc(S(=O)(=O)N2CC=C(c3c(C)n(C)c4ccccc34)CC2)cc1OC,-0.41,-3.5
COc1ccccc1NC(=O)NC1CCS(=O)(=O)C1 (stereo not drawn),-0.97,-1.4
O=C(CSc1cn(CC(=O)N2CCCC2)c2ccccc12)N1CCCCC1,1.1,nt
Cn1c(=O)c2c(-c3cccc(Br)c3)n(CC3CCCO3)cc2n(C)c1=O (stereo not drawn),3.3,-1
S=C(NCc1ccco1)Nc1ccc2[nH]ccc2c1,nt,2.3
Cc1cc(C)n2c(Nc3ccccc3)c(-c3ccsc3)nc2n1,-2.1,0.49
O=C(O)c1cc(=O)[nH]c2c(Cl)cc(Cl)cc12,nt,-1.6
CCC12CN3CC(C)(CN(C1)C3c1cccc(Br)c1)C2=O (stereo not drawn),1.5,-1.2
O=C(Nc1nc(-c2ccc(Cl)cc2Cl)cs1)c1cc([N+](=O)[O-])ccc1Cl,nt,-3.1
O=C(NCCCN1CCN(C2CCCCC2)CC1)c1cnn2c3c(cnc12)CCCCCC3,-0.72,nt
O=C(/C=C/c1ccccc1)Nc1ccc(Oc2ccc(F)cc2F)nc1,nt,-0.17
Cc1cc(OC(C)c2nc3ccccc3[nH]2)ccc1Cl (stereo not drawn),-0.26,-0.65
Cc1cccn2c(=O)cc(COc3ccc(NC(=O)c4cccs4)cc3)nc12,1.3,nt
Cn1c(=O)c2c(nc(NCCO)n2C)n(C)c1=O,nt,-0.98
CC(C)c1ccc(S(=O)(=O)N2CCCC(c3nc(-c4ccc(Cl)cc4)no3)C2)cc1 (stereo not drawn),15,nt
CC(=O)Nc1ccc(/C=C(\C#N)c2ccc(C)cc2)cc1,nt,-0.27
Cc1cccc(NC(=O)Nc2ccc(C(C)(C)C)cc2)n1,nt,-1.3
Cc1ccc(S(=O)(=O)NCCc2csc3nc(-c4ccccc4F)nn23)s1,15,nt
CCc1nnc(NC(=O)c2nn(-c3ccccc3)ccc2=O)s1,0.43,-1.5
CCOc1cc(C2c3c(oc4ccc(C)cc4c3=O)C(=O)N2Cc2ccc(OC)cc2)ccc1O (stereo not drawn),0.4,-0.6
CCSc1ncc2c(=O)n(CC(=O)Nc3ccc(Br)cc3F)cnc2n1,-0.07,nt
COC(=O)c1cc(Cl)c(C(=O)OC)c2c(C(=O)OC)cc(Cl)c(C(=O)OC)c12,1.6,-0.2
CCCCCc1nn2cc(-c3ccccc3OCC)nc2s1,0.17,-0.6
O=C(C1CCN(c2nc3ccccc3n3cccc23)CC1)N1CCc2ccccc21,1.8,nt
Cc1c(NC(=O)C2CCN(S(=O)(=O)c3cnc[nH]3)CC2)c(=O)n(-c2ccccc2)n1C,0.46,-0.76
CC(C)OC(=O)C1C(=O)CC(C)(O)C(C(=O)OC(C)C)C1c1ccc(N(C)C)cc1 (stereo not drawn),0.04,-0.55
COc1ccc2nc3sc(C(=O)NC4CCCCC4)cc3cc2c1,nt,0.02
CCSc1ccc2nnc(-c3ccc(OC)c(OC)c3)n2n1,nt,-2.7
COc1ccc(Nc2nc(N3CCCC3)nc3ccccc23)c(OC)c1,nt,-0.78
CCc1ccc2c(c1)NC(c1cccnc1)=NC(c1cccs1)=N2,-0.87,-2.2
Cc1nn(-c2ccccc2)c2c1c(=O)n(C)c1ccccc21,nt,-2.9
COc1cccc(NC(=O)NC2=C(C#N)C(C)(C)Cc3ccccc32)c1,0.38,-1.5
CN1C(=O)C(O)(CC(=O)c2ccccc2)c2cc(Br)ccc21 (stereo not drawn),nt,-0.46
Nc1ccc(S(=O)(=O)Nc2ccnn2-c2ccccc2)cc1,0.78,-1
O=S(=O)(c1cccc2cccnc12)N1CCN(c2ccc(F)cc2)CC1,nt,-0.93

# Reformatted bar-delimited: part of the list above.
compound | HIV TAR-Tat | CDC25B CDK2 inh
Cc1nn(-c2ccccc2)c2c1c(=O)n(C)c1ccccc21 | nt | -2.9
COc1cccc(NC(=O)NC2=C(C#N)C(C)(C)Cc3ccccc32)c1 | 0.38 | -1.5

# 2 entries from above, with two lines to a compound.
# The line under a structure holds: HIV TAR-Tat, CDC25B CDK2 inh
CN1C(=O)C(O)(CC(=O)c2ccccc2)c2cc(Br)ccc21 (stereo not drawn)
  nt, -0.46
Cc1nn(-c2ccccc2)c2c1c(=O)n(C)c1ccccc21
  nt, -2.9

# (continued)
SMILES,HIV TAR-Tat,CDC25B CDK2 inh
CCC(C)NC(=O)CCS(=O)(=O)c1cc(Br)cc2c1N(C(=O)C1CC1)CC2 (stereo not drawn),nt,-1.7
Clc1nnnc2c1sc1nc(N3CCOCC3)c3c(c12)CCCC3,nt,-0.97
CCS(=O)(=O)Nc1ccc2c(c1)oc(=O)n2C,0.41,nt
O=S(=O)(c1cc(-c2noc(C3CC3)n2)cs1)N1CCc2ccccc21,0.42,nt
CCCCn1c(=O)oc2ccc(C)cc21,3.3,-0.57
O=C(Nc1nc2ccc(F)cc2s1)c1cc(=O)c2cc(Cl)ccc2o1,1.2,-0.56
Cc1nc(OCc2ccc3c(c2)OCO3)c2oc3ccccc3c2n1,-0.28,nt
COc1cccc2c1Oc1nn(-c3ccccc3)c(N)c1C2,1.2,-0.27
COc1ccc2c(C(=O)O)cc(=O)[nH]c2c1,-0.28,-1.2
C#CC(O)(c1ccc(OC)cc1)c1ccc(OC)cc1,2.1,-0.04

# Molecules above that have fluorine, in the order listed:
SMILES,HIV TAR-Tat,CDC25B CDK2 inh
O=C(/C=C/c1ccccc1)Nc1ccc(Oc2ccc(F)cc2F)nc1,nt,-0.17
Cc1ccc(S(=O)(=O)NCCc2csc3nc(-c4ccccc4F)nn23)s1,15,nt
CCSc1ncc2c(=O)n(CC(=O)Nc3ccc(Br)cc3F)cnc2n1,-0.07,nt
O=S(=O)(c1cccc2cccnc12)N1CCN(c2ccc(F)cc2)CC1,nt,-0.93
O=C(Nc1nc2ccc(F)cc2s1)c1cc(=O)c2cc(Cl)ccc2o1,1.2,-0.56

# Further results
SMILES,HIV TAR-Tat,CDC25B CDK2 inh
Cc1cc(=O)n2nc(N3CCCC(C(=O)NCc4cccs4)C3)sc2n1 (stereo not drawn),0.87,-0.7
Fc1ccc(-c2cn(-c3ccccc3)c3[n+]2CCCS3)cc1,1.4,-3.2
Cn1c(=O)c2c(nc(NCCCO)n2Cc2ccc(Br)cc2)n(C)c1=O,0.51,-0.11
COc1cc2c(=O)n(C3CCCC3)c(=O)n(CC(=O)c3ccc4c(c3)OCO4)c2cc1OC,2.7,-1.3
CC(C)CC(=O)Nc1nnc(S(=O)(=O)N2CCC(C)CC2)s1,3.2,-2.2
Cc1ccc(N2CCN(Cc3nnc(-c4cccc(Br)c4)o3)CC2)c(C)c1,0.25,-1.7
COc1ccc(C2C3=C(CC(c4ccco4)CC3=O)Nc3ccccc3N2S(C)(=O)=O)cc1 (stereo not drawn),-1.2,nt
Cc1cc(C)n2nc(CNS(=O)(=O)c3cccc(Cl)c3)nc2n1,2.1,-2.6
CC[C@@]1(O)C(=O)OCc2c1cc1n(c2=O)Cc2cc3cc(O)ccc3nc2-1,1.7,nt
Cc1ccc(-c2noc(-c3nnn(-c4ccc(C(C)C)cc4)c3N)n2)cc1,1.1,nt
Cc1nc(-c2csc(S(=O)(=O)Nc3cccc4c3CCCC4)c2)no1,1.4,nt
O=C(c1noc2c1CCCCC2)N1CCCc2ccccc21,1.5,nt
C#CCn1c(COc2ccc(OC)cc2)nc2ccccc21,0.41,-1.8
CN(C)C(=O)N1CCN(C(=O)c2ccco2)CC1,0.52,0.29
CCC(CN1CCOCC1)NS(=O)(=O)c1c[nH]c(C(=O)OC)c1 (stereo not drawn),1.7,nt
Cc1cccn2c(=O)c3cc(C(=O)N(C)C4CCCCC4)sc3nc12,nt,0.4
O=C(c1ccc2c(c1)OCCO2)N1CCN(c2nc3ccc(F)cc3s2)CC1,0.17,nt
O=c1c2cnn(-c3ccc(F)cc3)c2nc(-c2ccco2)n1-c1ccc(F)c(Cl)c1,0.96,nt
CC(C)NS(=O)(=O)c1ccc2c(c1)nnn2CCN,1.2,nt
Cc1nnc(NC2CCCC2)c2c1nnn2Cc1ccc(F)cc1,-0.05,0.04

# Retrieved by compound from above (two):
SMILES,HIV TAR-Tat,CDC25B CDK2 inh
O=C(c1noc2c1CCCCC2)N1CCCc2ccccc21,1.5,nt
Cc1nnc(NC2CCCC2)c2c1nnn2Cc1ccc(F)cc1,-0.05,0.04

# Continued.
SMILES,HIV TAR-Tat,CDC25B CDK2 inh
CS(=O)(=O)N1CCc2cc(S(=O)(=O)NC3CCCCC3)ccc21,1.2,nt
Cc1ccccc1-n1cc(-c2ccc3c(c2)OCO3)[nH]c1=S,nt,-1.2
O=C(Nc1ccc(F)cc1F)C1CCCN(c2nnc(-n3cccc3)s2)C1 (stereo not drawn),-0.64,0.28
O=C1c2cccnc2C(=O)N1c1cccc(-c2nc3ccccc3o2)c1,0.56,1.4
Cc1cc(-c2ccc(S(=O)(=O)Nc3c(C)cccc3C)s2)on1,1.1,nt
Cc1ccc(-c2nc(Cn3nnc4ccccc4c3=O)no2)cc1,0,nt
Cc1cccc(NC(=O)Nc2ccc(-c3ccccc3)s2)n1,nt,0.16
CCCCC(=O)N1CCC(C(=O)NCCc2csc(C)n2)CC1,0.82,nt
CC1Cc2ccccc2N1C(=O)c1cc(S(=O)(=O)N2CCCC2)cn1C (stereo not drawn),0.52,nt
COc1cc2c(c(OC)c1)C(c1ccc(F)cc1F)CC(=O)N2 (stereo not drawn),1.8,-1.7
CCOCCOC(=O)C1=C(C)N(C)C(=O)NC1c1cc(Cl)c(O)c(OC)c1 (stereo not drawn),nt,4.2
COC(=O)c1cc(Nc2ncnc3onc(-c4ccc(Cl)cc4)c23)cc(C(=O)OC)c1,-0.63,nt
Cc1cc(C)c(-c2c(NC3CCC(C)CC3)c(=O)c2=O)cc1C (stereo not drawn),1.3,nt
Cc1noc(C)c1S(=O)(=O)NC(c1ccccc1)c1ccccc1,2.7,-3
COc1ccc(C(F)(F)F)cc1NC(=O)CC1(CC(=O)O)CCCCC1,nt,-2.7
CCC1(C)Cc2c(sc3nc(SC)nc(NCCN(C)C)c23)CO1 (stereo not drawn),0.59,-0.82
COc1cc(OC)cc(C(=O)Nc2nc3c(s2)CCc2ccccc2-3)c1,nt,-2.4
CC(C)Cc1nn2c(=O)cc(COC(=O)c3ccc4c(c3)OCO4)nc2s1,0.87,nt
Cc1ccc(Nc2nc(-c3ccccn3)cs2)cc1,nt,-0.66
CC(C)Cc1nn2c(=O)cc(CSc3nc(-c4ccccc4F)nc4cc(=O)[nH]n34)nc2s1,0.23,nt
COc1ccc(Cl)cc1NC(=O)CSc1ccc(-c2cccs2)nn1,1.5,nt
CC(=O)c1c(C)[nH]c(C(=O)N2CCN(C3CCCCC3)CC2)c1C,nt,-0.42
Nc1nc(-c2ccccc2Cl)nn1C(=O)c1ccccc1,0.38,1.1
Cn1c(C(=O)N2CCC(C(=O)NCc3ccccc3)CC2)cc2sccc21,nt,-2.1
COc1cc(C(=O)N2CCN(C(=O)c3ccco3)CC2)cc(OC)c1OC,nt,0.7
O=C(Nc1nc2ccccc2s1)Nc1cc(F)ccc1F,1.1,-3.1
C/C=C/C1OC(=O)C2(CCCCC2)C(=O)C1(C)C (stereo not drawn),nt,0.61
CCN1Cc2cccc(CNc3ccc(C)c(F)c3)c2C1,-0.08,2
CC1CS(=O)(=O)N(c2ccc(C(=O)N3CCc4ccccc43)cc2)C1=O (stereo not drawn),1.1,-1.9
O=C(Cn1ncn2nc(-c3ccco3)cc2c1=O)N1CCN(c2ccccc2)CC1,1,-1.8
Cn1cnc2c1c(=O)n(Cc1ccc(F)cc1)c(=O)n2C,1,0.11
CCCN1CCN(C(=O)c2cc3c(s2)-c2ccc(Cl)cc2S(=O)(=O)C3)CC1,0.23,0.38
CCN(CC)C(=O)Cn1ncc2c([nH]c3ccc(C)cc32)c1=O,-0.86,nt
O=C(NCc1ccc2c(c1)OCO2)C1CC(=O)N(Cc2ccc(F)cc2)C1 (stereo not drawn),nt,-1.3
CCN1CCN(c2c(S(=O)(=O)c3ccc(F)cc3)cnc3ccc(Cl)cc23)CC1,0.26,-2.6
CC(C)(C)NCC(O)COc1cccc2[nH]c(=O)[nH]c12 (stereo not drawn),nt,-0.43
CCN(CC)c1ncnc2c1cnn2-c1ccc(F)cc1,1.5,nt
CCCN(CCC)S(=O)(=O)c1ccc2c(c1)oc(=O)n2CC(=O)OCC,-1.6,-1.6
CCc1ccccc1-n1nnc(-c2nc(-c3ccc4c(c3)OCO4)no2)c1N,0.43,nt
O=C(Nc1ccc(F)cc1F)c1cnn(-c2cccc(F)c2)c1-n1cccc1,1.4,nt
Cc1cc2nnc(SCC(N)=O)n2c2c(C)cccc12,-1.3,-0.92
Cc1c(C(=O)N(Cc2ccccc2F)C2CCS(=O)(=O)C2)oc2ccccc12 (stereo not drawn),0.69,1
Cc1ccc(Nc2nc(N3CCN(C)CC3)nc3c2cnn3C)cc1C,1.8,nt
CCOc1cccc2sc(N(CCN(C)C)C(=O)c3nc4ccccc4s3)nc12,1,nt
COc1ccc(-c2c(-c3ccccc3)oc3ncnc(N)c23)cc1,1.6,-0.82
O=C(CS(=O)(=O)c1cccc2nsnc12)NCc1ccc2c(c1)OCO2,1.1,nt
C/C=C/Cn1c(N2CCNCC2)nc2c1c(=O)[nH]c(=O)n2C,-0.16,-0.77
O=C(CCCc1nnc2n3nc(-c4ccccc4)nc3c3ccccc3n12)NCC1CCCO1 (stereo not drawn),-0.45,-0.8
O=C1Cc2cc(S(=O)(=O)Nc3ccc(Oc4ccccc4)cc3)cc3c2N1CCC3,0.73,nt
CCOc1ccc(-n2c(C)c(C)c3c2ncn2nc(-c4ccco4)nc32)cc1,-0.31,-1.2
